# High-throughput results (PubChem)
# Bst PK mod: Pyruvate Kinase. 1.2% of 51,000 active. Potency, µM. partly purified Bacillus stearothermophilus pyruvate kinase, luminescence ATP production; ribose 5-phosphate activator present at AC10. AID 361, 2006; in the data active means potency below about 11 µM; inconclusive means mostly about 12 µM to 25 µM; inactive means weaker than that;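 the screen sought inhibitors and activators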;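 further: potency means the concentration at half of the fitted maximal effect; scaled between full activation by ribose 5 phosphate and full inhibition by luteolin; about four in five hits inhibit and the cells do not say which; series up to 57 µM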
# YjeE inh: qHTS Assay for Inhibitors of YjeE. tRNA threonylcarbamoyladenosine biosynthesis protein TsaE (Escherichia coli (strain …. purified YjeE, fluorescence polarisation of a bound ADP probe. Potency, µM. 0.05% of 71,000 active. AID 605, 2007; active = well fitted falling curve; inconclusive = weaker or top-dose-only fall, or a rising curve; inactive = flat or poorly fitted curve;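 further: top concentration of the series not given in the record; excess ADP was the control for the full effect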
#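 Purified YjeE (10 uM) with BODIPY Texas Red-labeled ADP probe (2 uM); compounds pin-transferred, 15 min at room temperature. Binding inhibition read as decreased fluorescence polarization; ADP titration as control.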
# * = called active by the depositor; i = inactive; ? = inconclusive; nt = not tested or not shown. This is a subset; the hit share may differ from the screen's.
no.	SMILES	Bst PK mod	YjeE inh
1	O=C1CCC(=O)N1CN(C(=O)c1ccco1)c1ccc(Cl)c(Cl)c1	>26	nt
2	N#CCCn1ncn(-c2ccccc2)c1=S	>57	i
3	COc1ccc(-c2cc(C(F)(F)F)nc(SCCC(=O)Nc3cc(C)on3)n2)cc1	>57	i
4	Cc1cccc(OCc2nnc(SCC(=O)Nc3cc(C)on3)n2C)c1	>57	i
5	O=C(CN1CCCN(Cc2ccc(F)cc2Cl)C1=O)NCc1ccccc1	>57	i
6	CCNc1ncc2nc(-c3cccs3)c(=O)n(C)c2n1	nt	i
7	COC(=O)c1ccc(C(/C=C/[C@@H](C)C(=O)N(C)Cc2ccccc2)NC(=O)OCc2ccccc2)cc1 (stereo partly drawn)	nt	i
8	CSc1nsc(SCC(=O)N2CCN(c3ccccc3)CC2)n1	>57	i
9	Cc1ccc(S(=O)(=O)N2CCOCC2)cc1C(=O)O	>57	i
10	COc1cccc(C2C(C(=O)OCc3ccccc3)=C(C)Nc3ncnn32)c1OC (stereo not drawn)	nt	i
11	O=S(=O)(c1ccc2c(c1)OCCO2)N1CCC(c2nc3ccc(Cl)cc3[nH]2)CC1	>57	i
12	S=c1[nH]nc(C2COc3ccccc3O2)o1 (stereo not drawn)	>57	i
13	COc1ccc(CC(=O)NC(C)c2nnc(SCc3nc4ccccc4c(=O)[nH]3)n2C)cc1 (stereo not drawn)	>57	i
14	C[C@H]1C2=C3C(CC[C@H]4C(OCc5ccc(F)cc5C(F)(F)F)OC[C@](C)([C@@H]34)N(C(=O)OC(C)(C)C)C2)C(CO)C1CO (stereo partly drawn)	nt	i
15	Cc1cc(C)c(C)c(S(=O)(=O)NCc2cccnc2)c1C	?	i
16	Cc1cc2oc(=O)cc(Cn3ccnc3)c2cc1C	>57	i
17	COc1ccc(Oc2ncc3nc(-c4ccccc4)c(=O)n(C[C@H]4CCCO4)c3n2)cc1	nt	i
18	CC12C(=O)N(c3nccs3)C(=O)C1C1C=CC2C1 (stereo not drawn)	>57	i
19	CC(C)(C)n1ncc2c(=O)n(CC(=O)NCc3ccc(F)cc3)cnc21	nt	i
20	CC(C)Oc1ccccc1C1CC(=O)Nc2cc3c(cc21)OCO3 (stereo not drawn)	>57	i
21	Cc1ccc2cc(CN(C(=O)c3cccnc3)C(C)C)c(=O)[nH]c2c1	>57	i
22	COc1ccc(C(C)=O)cc1COC(=O)c1ccc2c(c1)OCO2	>57	i
23	O=C(COC(=O)c1ccc(Br)o1)Nc1nc2ccccc2s1	nt	i
24	CCCc1cc(-n2ccnc2C)n2c(nc3ccccc32)c1C#N	>26	nt
25	O=C(NC1CC2CCCC(C1)N2CC(=O)N1CCCc2ccccc21)C1CCCCC1 (stereo not drawn)	>57	i
26	NS(=O)(=O)c1cc2c(cc1Cl)N[C@H](Cc1ccccc1)NS2(=O)=O	nt	i
27	O=C(NCC(c1cccnc1)N1CCN(c2ccccc2F)CC1)OCc1ccccc1 (stereo not drawn)	>57	i
28	Cc1ccc(-n2[nH]c(C)c(/C=N/c3ccccn3)c2=O)cc1	>57	i
29	CN(C)C(=O)c1ccc(-c2cncnc2Nc2ccc(F)cc2)cc1	nt	i
30	CN(C)c1ccc(NC(=O)CN2CCC(C(=O)c3ccc(F)cc3)CC2)cc1	>57	i
31	Cc1ccc(S(=O)(=O)N2CCN(C(=O)CN3CCc4ccccc4C3)CC2)cc1	>57	i
32	COc1cc(C(=O)OCC(=O)c2c[nH]c3ccccc23)ccc1OCC(=O)N1CCOCC1	>57	i
33	O=C(c1ccco1)N1CCN(S(=O)(=O)c2ccc3c(c2)CCN3C(=O)C2CC2)CC1	>57	i
34	O=C(CSc1nnc(Cc2cc(=O)[nH]c(=O)[nH]2)n1-c1ccccc1)N1CCCC1	>57	i
35	N#Cc1cccc(NC(=O)N2CCC3(CC2)CCN(C(=O)c2ccco2)CC3)c1	nt	i
36	O=C(Nc1ccccc1C(=O)OC1CCOC1=O)c1ccco1 (stereo not drawn)	nt	i
37	Cc1ccccc1Br	nt	i
38	COc1ccc(C2CC(c3ccc(OC)cc3)n3nc(NC(=O)c4ccco4)nc3N2)cc1 (stereo not drawn)	>57	i
39	C=COCCNC(=O)Nc1ccc(Cl)cc1Cl	>57	i
40	O=C(NCCN1CCOCC1)Nc1ccc(Cl)cc1Cl	>57	i
41	CC1CCCCN1CC(=O)NCc1ccc2c(c1)OCO2 (stereo not drawn)	>57	i
42	Cc1csc(NC(=O)c2ccccc2O)n1	nt	i
43	CCCOc1ccccc1C1NC(=O)NC(C)=C1C(=O)OCCOC(C)C (stereo not drawn)	nt	i
44	CCOc1ccc(NC(=O)Cn2nnc(-c3ccccc3NC(=O)C3CC3)n2)cc1	>57	i
45	O=C1c2ccccc2C(O)(Cc2ccccc2)N1Cc1ccco1 (stereo not drawn)	>57	i
46	CCOC(=O)c1ccc(N2Cc3cc(C)c(C)cc3C2)cc1O	nt	i
47	O=P(O)(O)CCP(=O)(c1ccccc1)c1ccccc1	nt	i
48	COc1ccc(OC)c(-c2cc(C(=O)Nc3c(C)nn(Cc4ccccc4C)c3C)no2)c1	>57	i
49	CCOC(=O)c1ccc2c(c1)nc(SCc1cn3ccsc3n1)n2CC	>57	i
50	Cc1ccccc1NC(=O)C1CCCN(S(=O)(=O)c2cnc[nH]2)C1 (stereo not drawn)	nt	i
51	Cc1nc(Nc2ccccc2)c2nc(-c3ccccc3)n(CCN3CCOCC3)c2n1	nt	i
52	Cc1cc(NC(=O)c2ccc3c(c2)C(=O)N(C2CCCCC2)C3=O)no1	nt	i
53	COCCNC(=O)CSCc1nc(-c2ccc(SC)cc2)oc1C	nt	i
54	COCC(=O)N1CCC2(CCCN(c3ccncc3)C2)CC1	nt	i
55	CCn1nccc1C(=O)Nc1cc(Cl)ccc1Cl	>57	i
56	Cc1ccc(S(=O)(=O)CCC(=O)OCC(=O)Nc2cc(C)on2)cc1	>57	i
57	Cn1c(SCC(=O)N2CCCCC2)nnc1-c1ccc(S(=O)(=O)N2CCOCC2)cc1	>57	i
58	O=C(CSc1nc(-c2ccccc2)cc(=O)[nH]1)N1CCOCC1	>57	i
59	COc1ccc(NC(=O)N2CC[C@@]3(CCCN(C(=O)c4cccn4C)C3)C2)cc1	nt	i
60	CNc1nc(OC)nc(N2CCOCC2)n1	>57	i

# Going on with the list.
no.	SMILES	Bst PK mod	YjeE inh
61	O=C(c1cc(C2CC2)on1)N1CCN(C(c2ccccc2)c2ccccc2)CC1	nt	i
62	CCCCN(CC)S(=O)(=O)c1cccc2cccnc12	nt	i
63	Cc1cccc(-n2c(N)cc(=O)[nH]c2=S)c1C	>57	i
64	CCCCC[C@H](O)CCCC(=O)O	nt	i
65	CC(=O)c1cc(-c2ccccc2)n(CC(=O)N2CCC(N3CCCCC3)CC2)c1C	>57	i
66	COC(=O)c1ccc(Nc2cc(C)nc3nc(C)nn23)cc1	nt	i
67	CC(C)N(C(=O)CSc1nnc(-c2cc3ccccc3cc2O)n1Cc1ccco1)C(C)C	>57	i
68	O=C1c2ccccc2N2C(=O)c3ccccc3C2N1Cc1ccco1 (stereo not drawn)	nt	i
69	COc1ccc(C(=O)COC(=O)CN2C(=O)NC(C)(C)C2=O)cc1OC	>57	i
70	COC(=O)CSc1nc(NC(C)C)nc(N2CCOCC2)n1	>57	i
71	O=c1c(-c2ccc(F)cc2)nc2cnc(Nc3ccccc3)nc2n1Cc1cccs1	nt	i
72	COC(=O)Nc1c(C(=O)OC)cc(OC)c(OC)c1OC	nt	i
73	COc1ccccc1NC(=O)CN1C(=O)CCS(=O)(=O)c2ccccc21	>57	i
74	Cc1ccc(-c2cc(C(F)F)nc(NCc3cccnc3)n2)cc1	>57	i
75	O=C(Nc1ccc2c(c1)OCO2)c1cc(C2CC2)on1	nt	i

# Some of the entries so far, in transposed form.
61) O=C(c1cc(C2CC2)on1)N1CCN(C(c2ccccc2)c2ccccc2)CC1
62) CCCCN(CC)S(=O)(=O)c1cccc2cccnc12
63) Cc1cccc(-n2c(N)cc(=O)[nH]c2=S)c1C
64) CCCCC[C@H](O)CCCC(=O)O
65) CC(=O)c1cc(-c2ccccc2)n(CC(=O)N2CCC(N3CCCCC3)CC2)c1C
Screen / compound no.,61,62,63,64,65
Bst PK mod,nt,nt,>57,nt,>57
YjeE inh,i,i,i,i,i

# Additional records follow:
no.	SMILES	Bst PK mod	YjeE inh
76	O=C(C1CCCO1)N1CCC(O)(c2ccccc2)CC1 (stereo not drawn)	>57	i
77	COc1ccc(C2N3CC4(C)CN2CC(C)(C3)C4=O)cc1OC (stereo not drawn)	nt	i
78	CC1=CC(c2ccccc2)n2nc(N3C(=O)C4CC=CCC4C3=O)nc2N1 (stereo not drawn)	>26	nt
79	C[C@H](CN(C)C)C(O)(c1ccccc1)c1ccccc1	nt	i
80	CC(C)Oc1ccc(NC(N)=O)cc1	>57	i
81	CC1(C)NC(=O)N(CC(O)CN2CCCCC2)C1=O (stereo not drawn)	>57	i
82	O=C(CSc1nc(-c2ccco2)cc(C(F)(F)F)n1)NCCCn1ccnc1	nt	i
83	COc1ccc(-c2noc(CSc3nc(N)c(-c4ccccc4)c(=O)[nH]3)n2)cc1OC	>57	i
84	O=S1(=O)N=C(Nc2ccc(O)c(CN3CCCCC3)c2)c2ccccc21	nt	i
85	Cc1noc(C(=O)Nc2ccc3c(c2)OCO3)c1Cl	nt	i
86	CCC[C@@H]1C[C@@]1(CCC)C(NS(=O)(=O)c1cccc2cccnc12)c1ccc(Cl)cc1 (stereo partly drawn)	nt	i
87	Nn1c(SC/C=C/c2ccccc2)nnc1-c1cccnc1	>57	i
88	Cc1sc2ncn3c(C)nnc3c2c1C	>57	i
89	COC(=O)C1=C(N)Oc2cc(C)n(Cc3ccncc3)c(=O)c2C1c1cccnc1 (stereo not drawn)	>57	i
90	Clc1ccc2[nH]c3c(NCCCN4CCOCC4)ncnc3c2c1	i	nt
91	O=C(O)Cn1c(P(=O)(O)c2ccccc2)nc2ccccc21	>57	i
92	S=c1[nH]nc(-c2ccco2)n1C1CCCCC1	i	nt
93	O=S(=O)(/N=C/N1CCOCC1)c1ccc(Cl)cc1	>57	i
94	COC(=O)c1cccc(NC(=O)c2nn(C)c(=O)c3ccccc23)c1	nt	i
95	CCc1ccc(NC(=O)c2cccnc2)cc1	>57	i
96	OC1CN=C2Sc3ccccc3N2C1 (stereo not drawn)	>26	nt
97	CC1=CC(=O)C2=C(C)CC[C@@H]3[C@H](OC(=O)[C@H]3C)[C@H]12	nt	i
98	Nc1cc(Cl)ccc1Oc1ccccc1	>57	i
99	COc1ccc(Cl)cc1NC(=O)Cn1cccc1	>57	i
100	c1ccc(CSc2ncccn2)cc1	>57	i
101	C=CCOc1ccc(/C(CC)=N/O)c(OC)c1	nt	i
102	Cc1cc(C)nc(SCC(=O)Nc2ncc3c(n2)CCCC3=O)n1	>57	i
103	O=C(c1cnccn1)N1CCC[C@@]2(CCN(c3ccccn3)C2)C1	nt	i
104	CC(=O)O[C@H]1C[C@@]2(C)[C@H](C[C@@H](O)[C@H]3[C@@]4(C)CC[C@@H](O)[C@@H](C)[C@H]4CC[C@@]32C)C1=C(CCC=C(C)C)C(=O)O	nt	i
105	Cc1ccccc1NC(=O)c1cnn(-c2ccccc2)c1NC(=O)c1ccco1	nt	i
106	COC(=O)COc1ccc(S(=O)(=O)N2CCN(c3ccccc3F)CC2)cc1C	>57	i
107	CCOC(=O)N1CCN(C(=O)c2ccc3c(c2)ncn3C2CCCC2)CC1	>57	i
108	Cc1ccccc1C=O	nt	i
109	CCOC(=O)CSc1nnc([C@@H](NC(=O)OC(C)(C)C)C(C)C)o1	>57	i
110	CCOC(=O)C1CCN(c2c(NCCCN(CC)c3ccccc3)c(=O)c2=O)CC1	>57	i
111	Cc1ccnc(N)c1	nt	i
112	O=C(Nc1cccc(Cl)c1)OCc1ccccn1	>57	i
113	CCC(C)(C)n1nnnc1C(c1ccc(OC)c(OC)c1)N1CCN(c2ccccc2)CC1 (stereo not drawn)	>57	i
114	O=C(NCCN1CCN(c2ccccc2F)CC1)C1CC(=O)N(C2CCCC2)C1 (stereo not drawn)	>57	i
115	Cc1noc(/C=C/N(C)C)c1S(=O)(=O)N1CCCC(C(=O)N2CCc3ccccc32)C1 (stereo not drawn)	nt	i
116	CCC[C@@H]1C[C@@]1(CCC)C(NC(=O)c1cccs1)c1ccc(Cl)cc1 (stereo partly drawn)	nt	i
117	Cc1ccc(-c2noc(CCC(N)=O)n2)cc1	>57	i
118	Cc1c(Nc2ncccc2C(=O)O)cccc1C(F)(F)F	nt	i
119	FC(F)(F)c1ccccc1-c1cncnc1NCc1ccccc1	nt	i
120	O=C(Nc1nccs1)c1cc(S(=O)(=O)N2CCOCC2)ccc1Cl	nt	i
121	Cc1cc(C)c(C(=O)CC2(O)C(=O)Nc3ccccc32)cc1C (stereo not drawn)	nt	i
122	O=C(CN1CCC(NC(=O)c2ccc(F)cc2)CC1)NCc1ccccc1F	>57	i
123	C[C@]12C=CC(=O)C=C1CC[C@@H]1[C@H]3C[C@@H](O)[C@](O)(C(=O)CO)[C@@]3(C)C[C@H](O)[C@]12F	nt	i
124	Cc1cc(O)c2c(-c3ccccc3)cc(=O)oc2c1	>57	i
125	CCCc1cc2c(cc1NS(=O)(=O)c1ccc(CCNC(C)=O)cc1)OCO2	>57	i
126	c1ccc(-c2cnc(-c3ccc(-c4ncc(-c5ccccc5)o4)cc3)o2)cc1	nt	i
